# CDC25B-CDK2 inh: human CDC25B-CDK2/CyclinA binding inhibition | P30305+P24941 | HTRF CDC25B-CDK2/CyclinA binding, anti-His/anti-Flag; stronger effect = higher value | z-score (no concentration beside the values) | 94,000 tested, 0.72% active;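 note: score is relative to mean and SD of negative controls; strong numbers were not always called active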
# TAR Tat displ: HIV-1 TAR-Tat binding disruption; HIV-1 TAR RNA, Tat peptide displacement FRET; stronger effect = higher value; z-score (test concentration not listed); 100,000 tested, 0.6% active; AID 1259389;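 note: score is relative to mean and SD of negative controls; some compounds called inactive have numbers as strong as hits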
# * = called active by the depositor; / = no result given.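 Rule for the calls: active = z-score from 3 up in half or more of its runs; inactive = the rest.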
SMILES | TAR Tat displ | CDC25B-CDK2 inh
Cn1c2ccccc2c2nnc(N3CCN(Cc4ccccc4)CC3)nc21 | 0.56 | 0.17
COC(=O)c1ccc(N)c(C(=O)OC)c1 | 1.4 | /
Cc1ccc(CNS(=O)(=O)c2c(C)nc3sc(C)cn3c2=O)cc1 | 1.7 | /
O=C(CN1C(=O)c2ccccc2S1(=O)=O)NCCSc1ccccc1 | -1.2 | 0.34
COc1ccc(-c2noc(CNC3CCCCC3)n2)cc1OC | -0.66 | -1
CN(CCCNC(=O)c1c2c(nc3ccccc13)C(=O)N(C1CCCCC1)C2)C1CCCCC1 | -0.02 | -0.23
O=c1nc2ccc(Cl)c3c2=c(/c1=C(\O)c1ccccc1)c1ccccc1c3=O | -2.5 | 0.49
CCN1CCCC1CNc1ncnc2c1cnn2-c1cccc(Cl)c1 (configuration not stated) | 0.94 | /
CCOc1ccccc1-c1nnc(-c2ccc(Br)cc2)o1 | 0.51 | -0.1
CCOC(=O)c1sc2nc(C)nc(Nc3ccc(F)cc3)c2c1C | / | -1.2
COc1ccc(N2CCN(Cc3nc4c(c(=O)n(C)c(=O)n4C)n3CC(=O)C(C)(C)C)CC2)cc1 | 3.3 | -0.69
Cc1ccc(C)c(NS(=O)(=O)c2ccc(-c3cc(C)[nH]n3)s2)c1 | 0.74 | /
Clc1ccc(-c2noc(-c3cccnc3NCCc3ccccc3)n2)cc1 | 0.07 | -0.94
Cc1ccc(O)c(N=Nc2ccccc2)n1 | / | -2.4
CCOc1ccc(NC(=O)CSc2nc3ccc(N4C(=O)c5ccccc5C4=O)cc3s2)cc1 | / | -4.7
O=c1[nH]c(=S)[nH]nc1-c1ccc(Cl)cc1 | / | -1.2
COc1cc(OC)c(NC(=O)N2CCCC2c2ccco2)cc1Cl (configuration not stated) | 0.62 | -2.8
O=S1(=O)c2cccc3cccc(c23)N1Cc1ccccc1F | / | -0.24
O=C(CCCSc1nc(-c2ccco2)cc(C(F)(F)F)n1)NC1CCCCC1 | -1.2 | -2.3
COc1ccc(OC)c(-c2cc(C(=O)Nc3sc4c(c3C(N)=O)CCC(C)C4)no2)c1 (configuration not stated) | / | -0.86
CCC(C)NC(=O)C1=C(C)C(=O)OC12CCC(C)CC2 (configuration not stated) | -0.14 | -0.79
O=C(O)CCSc1nnc(-c2cccc(Cl)c2)o1 | -0.67 | -1.1
Cc1ccc(C)n1-c1nnc(N2CCC(C(=O)NC3CCC(C)CC3)CC2)s1 (configuration not stated) | -0.16 | -0.15
O=C(CSc1nc2nccnc2c(=O)n1CC1CCCO1)Nc1ccccc1F (configuration not stated) | 0.79 | -1.3
Cc1ccc(-n2ncc3c(NCCCn4ccnc4)ncnc32)c(C)c1 | 3.6 | -2.2
CCn1ncc([N+](=O)[O-])c1C(=O)NC1CCCCC1 | -0.95 | 0.55
COc1cc(C2c3c(oc4ccc(F)cc4c3=O)C(=O)N2Cc2ccc(C)cc2)ccc1O (configuration not stated) | -0.58 | -0.09
COC(=O)CSc1nc(N)c2c(C)c(C)sc2n1 | / | -1.6
CC(C)(C)c1ccc(NC(=O)Nc2sccc2-n2cccc2)cc1 | / | -0.94
O=C(NCCN1CCOCC1)c1nc(N2CCCC2)c2oc3ccccc3c2n1 | 1.3 | /
CC(=C(CCOP(=O)(O)O)SC(=O)c1ccccc1)N(C=O)Cc1cnc(C)nc1N | 1.6 | /
O=c1c2ccccc2nnn1Cc1noc(-c2ccccc2Cl)n1 | -0.07 | /
Cc1cc(N2CCc3ccccc3C2)n2nc(-c3ccco3)nc2n1 | -1.5 | /
CCN1CCN(c2ncc(C(=O)NCCCOC(C)C)c(C)n2)CC1 | 1.4 | /
CC(C)N(C(=O)c1ccc2snnc2c1)C(C)C | 3.3 | -2.6
CCc1nc(-c2cc(S(N)(=O)=O)ccc2OC)no1 | 0.79 | -2.1
Cc1nn(-c2ccccc2)c2c1nc(CCC(=O)NC1CC1)c(=O)n2C | -0.47 | /
CC(CC(=O)Nc1ccc(Cl)cc1)C(Cl)(Cl)Cl (configuration not stated) | / | -1.7
Cn1c(NCc2ccc(F)cc2)cc(=O)n(C)c1=O | / | -0.86
CCCCN(C)c1nc(C)nc2oc(C)c(C(=O)OCC)c12 | 1.9 | /

# 6 consecutive records already listed, for reference:
SMILES | TAR Tat displ | CDC25B-CDK2 inh
Cn1c2ccccc2c2nnc(N3CCN(Cc4ccccc4)CC3)nc21 | 0.56 | 0.17
COC(=O)c1ccc(N)c(C(=O)OC)c1 | 1.4 | /
Cc1ccc(CNS(=O)(=O)c2c(C)nc3sc(C)cn3c2=O)cc1 | 1.7 | /
O=C(CN1C(=O)c2ccccc2S1(=O)=O)NCCSc1ccccc1 | -1.2 | 0.34
COc1ccc(-c2noc(CNC3CCCCC3)n2)cc1OC | -0.66 | -1
CN(CCCNC(=O)c1c2c(nc3ccccc13)C(=O)N(C1CCCCC1)C2)C1CCCCC1 | -0.02 | -0.23

# (list continues)
SMILES | TAR Tat displ | CDC25B-CDK2 inh
CCOC(=O)c1sc2ncnc(Oc3cccnc3)c2c1C | -0.16 | /
CCc1ccc(S(=O)(=O)NCc2c(C)nn(C)c2C)cc1 | 0.24 | /
COc1ccc(-n2c(C)cc(CNS(=O)(=O)c3cc(Cl)ccc3OC)c2C)cc1 | 1 | /
COc1ccc(OCC(O)Cn2c(N(C)C)nc3c2c(=O)n(C)c(=O)n3C)cc1 (configuration not stated) | / | -0.34
O=C(Nc1nc2c(s1)CCCCCC2)Nc1cc(F)ccc1F | 1.2 | /
CCCCC1(C(=O)OCC)CC(CN2CCOCC2)OC1=O (configuration not stated) | / | -0.68
O=C(CC(=O)N1CCCCCC1)Nc1ccc2nc3n(c(=O)c2c1)CCCCC3 | / | -1
CCCCn1cc(S(=O)(=O)c2ccc(Cl)cc2)c(=O)c2cc(F)ccc21 | -0.93 | -1.6
Cc1noc(/C=C/c2cccs2)c1S(=O)(=O)N1CCCC(C(=O)NCCC(C)C)C1 (configuration not stated) | 0.09 | -2.3
Cc1cccc(-c2nc3ccccc3c3nnc(SC(C)C(=O)NCC4CCCO4)n23)c1 (configuration not stated) | 0.6 | /
CCN1c2ccccc2-c2nc(SCC(=O)Nc3ccccc3Cl)ncc2S1(=O)=O | 0.67 | /
O=C(CSc1nc(=O)n(C2CCS(=O)(=O)C2)c2c1CCC2)c1ccc(Br)cc1 (configuration not stated) | -1.5 | -2.3
COC(=O)c1ccc2c(=O)n3nc(Nc4ccc(C(C)C)cc4)sc3nc2c1 | 0.24 | /
COc1ccc(S(=O)(=O)Nc2cc3c(cc2N2CCOCC2)n(C)c(=O)n3C)cc1 | 0.28 | -0.12
CCOc1ccc(-n2ccn3c(CCCC(=O)O)nnc3c2=O)cc1 | 2.9 | -2.5
CCc1ccc(S(=O)(=O)c2nnn3c2nc(N2CCCC2)c2sccc23)cc1 | -0.62 | /
CN(CCNC(=O)c1cc(-c2cccnc2)nc2ccccc12)C1CCCCC1 | -0.04 | /
Cn1c(=O)c2c(ncn2CC(=O)Nc2ccc(F)cc2)n(C)c1=O | 2.6 | -0.01
O=S(=O)(NCc1ccccc1)c1ccccc1 | / | -0.56
Clc1cccc(N2CCN(c3nc4ccccc4n4cnnc34)CC2)c1 | -1.3 | -1.2
O=C1c2cccnc2C(Nc2cccc(F)c2)N1Cc1cccs1 (configuration not stated) | -0.11 | -0.68
O=C(Nc1ccc(F)cc1F)c1cccn1-c1nnc(N2CCCCC2)s1 | -0.6 | /
Clc1ccc(CCNc2ccc3nncn3n2)cc1 | 0.13 | -0.87
CCN(CC)CCCNc1ncnc2c1cnn2-c1ccc(C)c(C)c1 | 0.38 | /
COc1ccc(NC(=O)Nc2cn(C)c(=O)c3ccccc23)c(OC)c1 | 0.15 | /
CNc1nc(N)c([N+](=O)[O-])c(Nc2cccc(F)c2)n1 | 2.1 | /
COC(=O)NC1c2ccccc2Oc2ccccc21 | 0.32 | -0.47
O=C(NC(c1nnc(-c2ccccc2)o1)c1ccccc1F)c1ccc2c(c1)OCO2 (configuration not stated) | 1.3 | /
C=CCn1c(SCCCC)nc2c(c1=O)C1(CCCCC1)Cc1ccccc1-2 | / | -1.6
CS(=O)(=O)c1ccccc1C(=O)O | / | -1.9
COc1ccc(-c2noc(-c3nnn(-c4cc(Cl)ccc4OC)c3C)n2)cc1 | -2 | /
Cc1c(C(=O)N2CCCCC2)c(S(=O)(=O)NC2CC2)c(C)n1C | 0.24 | /
COc1ccc(OCC(O)CNS(=O)(=O)c2cccs2)cc1 (configuration not stated) | / | -1.2
CCCCN(CC)c1nc(C)nc2c1c(C)cn2-c1c(C)cc(C)cc1C | / | 0.4
CCOC(=O)N1CCN(C(=O)Cn2nc(CC)n3c(cc4sc(C)cc43)c2=O)CC1 | 1.5 | -2
CCCC(=O)N(Cc1c(C)[nH]c(C(=O)OCC)c1C)CC1CCCO1 (configuration not stated) | 0.6 | /
O=C(CCS(=O)(=O)c1ccc(Cl)cc1)Nc1nc(-c2ccccn2)cs1 | 0.2 | /
CC1(C)CC2(C)OC(=O)C(c3ccccc3)N2C(=S)N1 (configuration not stated) | / | -1.8
Cn1c(N2CCCCC2)nc2c1c(=O)n(Cc1ccccc1F)c(=O)n2C | 0.69 | -0.3
O=C(Nc1sc2c(c1C(=O)NCC1CCCO1)CCCC2)c1cc(-c2ccc(Cl)cc2)on1 (configuration not stated) | 1.3 | -2.1
COC(=O)c1cc(S(=O)(=O)Nc2ccc(F)c(Cl)c2)cn1C | 1.3 | -1.8
COc1ccc(N2C(=O)C3CC=CCC3C2=O)c(OC)c1 (configuration not stated) | / | -3
O=C(c1cccn1-c1nnc(N2CCCC2)s1)N1CCN(c2ccccc2)CC1 | 0.86 | /
O=C(Cn1ccc2cc(S(=O)(=O)N3CCCC3)ccc21)NCc1cccs1 | -0.24 | /
CC(C)(C)NC(=O)N/N=C/c1[nH]ncc1Br | / | -2.8
C=CCNc1nc(Nc2cccc(C)c2)c2cnn(C)c2n1 | 0.22 | /
CCOC(=O)Cc1c(O)c2ccccc2[nH]c1=O | 2.5 | /
CC(=O)N1c2ccc(S(=O)(=O)N3CCC(C(=O)NC4CCCCC4)CC3)cc2CC1C (configuration not stated) | 1.1 | /
CCc1cccc(C(C)C)c1NC(=O)Nc1ccccc1 | / | -1.2
COc1ccc2c(c1)c(CC(=O)OCC(=O)O)c(C)n2C(=O)c1ccc(Cl)cc1 | 0.32 | /
Cc1cc(-n2cnnn2)ccc1S(=O)(=O)N1CCN(S(C)(=O)=O)CC1 | 0.91 | -0.54
CCCc1cnc(N2CCCN(C(=O)OC(C)(C)C)CC2)nc1 | / | -0.64
CC(C)Cn1c(=O)c2sccc2n2c(CCCC(=O)O)nnc12 | 0.96 | 0.37
CCOC(=O)C1CCCN(S(=O)(=O)c2ccc3c(c2)N(C)C(=O)CC(=O)N3C)C1 (configuration not stated) | 0.74 | 0.12
Cc1ccc(OCc2nn3c(-c4ccc(C)cc4)nnc3s2)cc1 | 2 | -0.24
Cc1ccc2nc(NCCCN3CCOCC3)c3nncn3c2c1 | -1.3 | -1.2
CC(=O)n1c2ccccc2c2ccccc21 | 1.6 | -2.1
COc1ccc(OC)c(NC(=O)C2=C(C)C(=O)OC23CCN(C(C)C)CC3)c1 | 1.3 | /
CN/C(=C\[N+](=O)[O-])NCCSCc1csc(CN(C)C)n1 | 0.62 | /
CCCC(=O)Nc1ccc2c(c1)CC(=O)N2C | 1 | /

# Next section:
SMILES | TAR Tat displ | CDC25B-CDK2 inh
O=C(CN1C2=NCCCN2c2ccccc21)c1ccco1 | -0.33 | -1.3
O=S(=O)(c1ccc(-n2cnnn2)cc1)N1CCN(c2cccc(Cl)c2)CC1 | 0.8 | 0.3
COC(=O)C1C(=O)C2=C(CC1C)NC(C)=C(C(=O)OC1CCCC1)C2c1ccc(F)cc1 (configuration not stated) | 1.1 | 0.11
CC1(C)CC(=O)c2c(-c3cccs3)n[nH]c2C1 | / | -1.8
OCCN(CCO)c1ncnc2c1cnn2-c1ccc(F)cc1 | 2 | /
O=C(Cn1c(=O)oc2cc(S(=O)(=O)NC3CCCCC3)ccc21)N1CCCC1 | -0.27 | -0.18
COc1ccc(Cn2c(CO)cnc2SCc2ccccc2)cc1 | 1.8 | /
O=C(Nc1cccnc1Sc1ccc(Cl)cc1)C1CC1 | / | -0.88
CCCS(=O)(=O)N1CCCN(Cc2nc3cc(Cl)ccc3o2)CC1 | 4.3 | /
O=C(Oc1ccc(Br)cc1)c1csnn1 | 0.23 | 0.57
O=C(Cc1noc2ccccc12)N1CCN(c2ccccc2)CC1 | 1.1 | -0.71
CCOC(=O)c1cc(C)[nH]c(=O)c1C#N | / | -1.6
O=C(CSCc1cc(=O)n2nc(C3CCCCC3)sc2n1)Nc1ccc(Cl)cc1 | -0.81 | /
Cc1ccc(-c2ccc(=O)n(Cc3ccc(Cl)cc3)n2)cc1S(=O)(=O)N1CCOCC1 | 1.4 | 1.2
COc1ccc(S(=O)(=O)NCCc2csc3nc(-c4cccs4)nn23)cc1OC | 1.7 | /
O=C(O)CS/C=C/c1ccccc1 | / | -0.98
CN(c1ccccc1C(=O)O)S(=O)(=O)c1ccc2[nH]c(=O)[nH]c2c1 | -0.24 | -0.67
COC(=O)NC(=O)c1ccc(Oc2ccc(C(F)(F)F)cc2[N+](=O)[O-])cc1 | / | -1.2
OCc1cnc(SCc2ccc(F)cc2)n1Cc1ccccc1 | 0.89 | /
COc1ccc(N2CSC3=C(C#N)C(c4ccc(OC)cc4OC)CC(=O)N3C2)cc1 (configuration not stated) | -1.2 | 3.4*
O=c1[nH]nc(-c2ccccc2)nc1Cc1ccccc1 | 0.12 | /
Cn1c(=O)oc2cc(S(=O)(=O)N3CCc4ccccc43)ccc21 | / | -0.01
Cc1nc(N2CCC(C)CC2)c2c(C)c(C(=O)Nc3cnc4ccccc4c3)sc2n1 | 1.1 | /

# Screening results (PubChem)
